GLA inh pH 4.5: inhibitors of human alpha-galactosidase A at pH 4.5. P06280. purified enzyme, 4-MU-alpha-Gal fluorescence, pH 4.5. activity change, negative = inhibition, % at 105 µM. 230,000 tested, under 10 active; inconclusive = small, poorly fitted or top-dose-only inhibition, or a rising curve; inactive = flat fitted curve, though single readings scatter; no compound was filed as active;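 further: 0% = full activity with enzyme and -100% = basal without enzyme; dose as in the result columns while the protocol names 77 µM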
miR-21 FLuc: raises the signal of a miR-21 reporter; HeLa miR-21 FLuc reporter, luciferase, 48 h; Potency, µM (series often up to 38.3 µM), without a hit: top-dose reporter change, positive = more light; 340,000 tested, under 10 active; active = well fitted rising curve with a large enough effect; inconclusive = small, poorly fitted or top-dose-only effect; inactive = no such curve, though single readings can be large or run the other way;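 further: % of control where 0% means no effect; miR-21 action dims this reporter so a rising signal means less miR-21 action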
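Using DMEM plus 10% FBS, HeLa miR-21-FLuc cells are incubated with test compounds (final up to about 40uM) for 48 hours; firefly luciferase signal is then imaged following reagent-mediated lysis.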
Rango-impB inh: Rango-importin beta binding inhibition. actives 0.031% (n = 340,000). AID 540263. Q14974. Rango CFP/YFP FRET sensor + importin beta, 45 min. Potency, µM (highest dose often 92.2 µM), inactives show top-dose inhibition of complex formation; active = rising FRET ratio curve, often small or poorly fitted; inconclusive = mostly compound fluorescence or quenching in the first reads; inactive = flat curves in all reads;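 further: potency means the concentration at half of the fitted maximal effect; 0% = DMSO wells and 100% = buffer wells lacking importin beta; nearly all actives have a fitted effect of over 15% in size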
Target sequence (Q14974 whole entry, looked up): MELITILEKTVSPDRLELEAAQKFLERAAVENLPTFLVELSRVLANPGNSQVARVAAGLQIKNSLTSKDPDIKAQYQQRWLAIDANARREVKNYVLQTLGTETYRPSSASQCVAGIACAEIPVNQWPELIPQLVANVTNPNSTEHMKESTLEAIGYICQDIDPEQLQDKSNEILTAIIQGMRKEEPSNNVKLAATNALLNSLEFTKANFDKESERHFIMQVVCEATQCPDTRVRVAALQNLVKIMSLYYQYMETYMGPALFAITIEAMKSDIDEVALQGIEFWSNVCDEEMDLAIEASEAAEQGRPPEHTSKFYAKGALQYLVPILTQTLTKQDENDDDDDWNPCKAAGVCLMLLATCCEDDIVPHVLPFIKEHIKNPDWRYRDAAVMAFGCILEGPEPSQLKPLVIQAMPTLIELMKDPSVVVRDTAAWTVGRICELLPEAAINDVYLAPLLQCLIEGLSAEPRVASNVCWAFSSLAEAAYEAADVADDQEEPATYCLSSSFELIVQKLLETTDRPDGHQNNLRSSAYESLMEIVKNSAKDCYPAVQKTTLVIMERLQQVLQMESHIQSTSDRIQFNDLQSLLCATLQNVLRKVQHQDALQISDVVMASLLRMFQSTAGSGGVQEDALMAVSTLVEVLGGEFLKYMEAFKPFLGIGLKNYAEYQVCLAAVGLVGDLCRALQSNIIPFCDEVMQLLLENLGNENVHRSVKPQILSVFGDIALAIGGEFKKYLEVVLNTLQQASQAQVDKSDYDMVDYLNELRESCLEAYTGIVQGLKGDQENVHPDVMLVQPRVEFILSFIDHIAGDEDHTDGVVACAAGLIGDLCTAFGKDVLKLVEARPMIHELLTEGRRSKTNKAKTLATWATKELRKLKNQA
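Inhibition scored from the CFP 486 nm/YFP 530 nm FRET ratio 45 min after adding 0.125 microM importin beta to 50 nM Rango biosensor preincubated 5 min with compound (room temperature, PBS with DTT, Tween-20, BSA). No-importin wells as positive control.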
Rango dissoc inh: prevents RanGTP from dissociating the Rango-importin beta complex; O95149+P62826; Biochemical FRET Rango-importin beta, RanGTP-induced dissociation; Potency, µM (highest dose often 46.1 µM), without a hit: at the highest dose activity change, negative = inhibition; actives 0.071% (n = 340,000); AID 540253; active means falling FRET ratio curve, often poorly fitted, with flat reads before Ran was added; inconclusive means other falling curves, or compound fluorescence or quenching; inactive means flat or rising ratio curve;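 further: potency means the concentration at half of the fitted maximal effect; % of control where 0% means no effect; nearly all actives have a fitted effect of over 45% in size; -100% = wells without RanGTP and RCC1; the record marks most hits as doubtful in a second field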
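Rango FRET biosensor (snurportin-1 IBB flanked by N-terminal EYFP and C-terminal CFP10) at 0.1 uM, with 0.25 uM importin beta in PBS, 1mM DTT, 0.02% Tween-20, 0.1% BSA. 0.6 uM Ran, 2mM GTP and 0.2 uM RCC1 were then added for 45 min at room temperature. Inhibition read as loss of FRET rise.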
* = called active by the depositor; ? = inconclusive; . = no result given; & = joins results of further samples; [ ] = remark or other dose. An excerpt; count on the stated rates, not on these rows.

SMILES | GLA inh pH 4.5 | miR-21 FLuc | Rango-impB inh | Rango dissoc inh
CS(=O)(=O)N1CCc2cc(-c3csc(NCC4CCCO4)n3)ccc21 (configuration not stated) | 1 | -10% | 5.3% | 0%
CCCn1c(SCC(=O)NC(C)C23CC4CC(CC(C4)C2)C3)n[nH]c1=O (configuration not stated) | -11 | -3% | 1.5% | 2%
Cc1nn(C)cc1C(C(=O)NC1CCCCC1)N(CCc1ccccc1)C(=O)c1cnccn1 (configuration not stated) | -16 | 0% | -1.2% | -24%
Cc1nnc(N2C(=O)C(O)=C(C(=O)c3ccco3)C2c2ccc(C(C)C)cc2)s1 (configuration not stated) | -3 | -44% | ? | ?
O=C(Nc1ccccc1C(=O)NCC1CCCO1)c1ccc(Cl)cc1 (configuration not stated) | . | -1% | -2.8% | -1%
NS(=O)(=O)c1ccc(NC(=S)N2CCC(Cc3ccccc3)CC2)cc1 | . | 11% | 4.1% | -20%
CCOC(=O)N1CCC(NC(=O)c2ccc(Cl)cc2)CC1 | 1 | -6% | 3.7% | -4%
O=C(CCC1CCCCC1)Nc1ccccc1C(=O)N1CCOCC1 | 3 | 0% | -4.6% | 1%
COc1cc2[nH]c3c(N4CCC(C(N)=O)CC4)ncnc3c2cc1OC | 0 | 1% | . | .
COC(=O)C1CCN(C(=O)COC(=O)CSc2ccc(C(N)=O)cc2[N+](=O)[O-])CC1 | . | . | 2.1% | -8%
O=C(COc1cccc(Br)c1)N/N=C1\CCSC1 | 4 | -3% | -1.1% | -12%
Cc1ccc(N2C(=O)CC(N3CCN(c4ccc(F)cc4)CC3)C2=O)c(C)c1 (configuration not stated) | . | -2% | -3.3% | 0%
CC(C)CNC(=O)CSc1ccc(S(=O)(=O)N2CCN(C)CC2)cn1 | . | . | 4.8% | -13%
CCOc1ccccc1C=C1SC(=S)N(CC)C1=O | . | . | -0.2% | -1%
Cc1oc2c(c1C(=O)Nc1cccc3ccccc13)CCCC2 | -4 | 0% | -0.3% | -9%
Cc1ccc(C)c(OCc2nnc(NC(=O)c3ccco3)s2)c1 | 0 | 0% | 5.7% | 5%
Cc1nn(C2CCCO2)c(=O)nc1N (configuration not stated) | 4 | 1% | . | .
CCOC(=O)C(C)Oc1ccc2c(CC)cc(=O)oc2c1C (configuration not stated) | 1 | -5% | 6.4% | -2%
Cn1c(CCNC(=O)c2ccccc2F)nnc1SCC(=O)Nc1ccccc1F | 6 | 0% | -0.7% | -23%
N#C/C(=C\c1c(N2CCC(C(N)=O)CC2)nc2ccccn2c1=O)C(=O)NCc1ccco1 | -5 | 1% | ? | -30%

Fetched by structure from above:
SMILES | GLA inh pH 4.5 | miR-21 FLuc | Rango-impB inh | Rango dissoc inh
COc1cc2[nH]c3c(N4CCC(C(N)=O)CC4)ncnc3c2cc1OC | 0 | 1% | . | .
O=C(CCC1CCCCC1)Nc1ccccc1C(=O)N1CCOCC1 | 3 | 0% | -4.6% | 1%
Cc1nn(C2CCCO2)c(=O)nc1N (configuration not stated) | 4 | 1% | . | .
CCOC(=O)C(C)Oc1ccc2c(CC)cc(=O)oc2c1C (configuration not stated) | 1 | -5% | 6.4% | -2%
CCCn1c(SCC(=O)NC(C)C23CC4CC(CC(C4)C2)C3)n[nH]c1=O (configuration not stated) | -11 | -3% | 1.5% | 2%
O=C(COc1cccc(Br)c1)N/N=C1\CCSC1 | 4 | -3% | -1.1% | -12%
Cc1ccc(N2C(=O)CC(N3CCN(c4ccc(F)cc4)CC3)C2=O)c(C)c1 (configuration not stated) | . | -2% | -3.3% | 0%

Additional results:
SMILES | GLA inh pH 4.5 | miR-21 FLuc | Rango-impB inh | Rango dissoc inh
COc1cccc(-c2nn(-c3ccccc3)cc2CN(C)Cc2ccno2)c1 | -1 | 1% | -6.3% | -9%
CCCCCCOC(=O)Cc1c(C)nc(-c2ccccc2)[nH]c1=O | 0 | -3% | 7.8% | 2%
Cc1ccc(C(=O)COC(=O)CNC(=O)c2ccccc2)s1 | . | . | 0.4% | 0%
COc1cccc2c1Oc1ncccc1N(C(=O)CCC(=O)NCc1ccccc1F)C2 | . | -1% | -0.4% | -5%
Cc1ccc(/C=N/NC(=O)c2ccccc2OCc2ccc(F)cc2)o1 | 3 | -12% | -1.5% | 3%
COc1ccc(C(=O)OC(C)C(=O)NC(C)CCc2ccccc2)cc1OC (configuration not stated) | . | -5% | -1.6% | 11%
COc1ccc(-n2c(=S)[nH]c3ccccc32)cc1 | -2 | -10% | 0.1% | 3%
CCC(=O)Nc1c(-c2ccccc2)c(=O)c2ccccc2n1C | 2 | -8% | ? | ?
CC(C)c1nnc(NC(=O)C2CCCN2S(=O)(=O)c2ccc(Cl)cc2)s1 (configuration not stated) | 12 | 3% | 1.3% | -6%
N#C/C(C(=O)N1CCOCC1)=C1/SC(Cc2ccccc2)C(=O)N1c1ccccc1 (configuration not stated) | 2 | -10% | ? | 3%
O=C(CSc1nc(=O)n2ccccc2n1)N1CCC(Cc2ccccc2)CC1 | . | . | -0.6% | -25%
Cc1ccc(-c2nc(CS(=O)(=O)CC(=O)NC3CCCCCC3)c(C)o2)cc1 | . | -4% | 2.9% | -10%
CCOc1ccc(NC(=S)NNC(=O)c2cc(Br)ccc2Cl)cc1 | -7 | -9% | -0.3% | -10%
O=C(CCc1ccccc1Cl)Nc1cc2c(cc1C(=O)O)OCCCO2 | . | . | -1.9% | 5%
COC(=O)c1ccccc1NS(=O)(=O)c1ccc(O)c(C(=O)O)c1 | 4 | -3% | 0.5% | 0%
CCc1ccccc1OCC(=O)NNCC(=O)Nc1cccc(C#N)c1 | . | . | 1.4% | -3%
CCC(C)N(C(=O)CSc1ccc(NC(C)=O)cc1)C1CCS(=O)(=O)C1 (configuration not stated) | 5[21.1 µM] | 2% | 4.2% | -11%
Cc1nc2c(c3c1[nH]c1ccccc13)C(=O)CC(C)(C)C2 | . | 5% | ? | ?
CC(C)(C)c1cc(/C=N/NC(=O)C[n+]2ccccc2)cc(C(C)(C)C)c1O | . | -1% | 1.0% | 6%
COC(=O)c1cccc(S(=O)(=O)N(Cc2ccco2)Cc2cc3cc(OC)ccc3[nH]c2=O)c1 | -10 | 12% | -0.5% | 16%
CCN(CCC(=O)O)c1ccccc1 | -4 | -3% | 2.2% | 1%
COc1ccc(CCNC(=O)c2noc(C)c2[N+](=O)[O-])cc1OC | . | -2% | -3.9% | -1%
O=C(CCCl)Nc1nnc(SCC(=O)NC2CCCC2)s1 | . | 17% | 0.0% | -14%
CC(=O)c1cc(O)c2ccccc2c1O | 3 | -48% | 0.5% | 3%
CCCCCCCCC[n+]1cccc2c3ccccc3ccc21 | 14 | ? | 4.1% | ?
O=C(c1ccc2c(=O)n3c(nc2c1)CCCCC3)N1CCN(c2cccc(Cl)c2)CC1 | . | 7% | -2.8% | 1%
CSc1ccc(CN(C)C(=O)CCNS(=O)(=O)c2ccc(C)c(C)c2)cc1 | . | . | -0.1% | 5%
O=S1(=O)CCC(NC(=S)NC2CCS(=O)(=O)C2)C1 (configuration not stated) | 1 | -6% | -0.5% | -1%
O=C(Nc1cccc(C(=O)NC2CC2)c1)c1ccccc1 | . | . | 0.3% | -7%
Cc1cc(C)c(C)c(S(=O)(=O)Nc2ccccc2C(=O)NN2CCOCC2)c1C | . | . | 0.4% | 0%
O=C1C2(c3ccccc3)CN(CCO)CC1(c1ccccc1)CN(CCO)C2 | -5 | 1% | 0.0% | 1%
C=CCn1c(SCC(=O)Nc2sc(C)c(C)c2C(=O)OCC)nnc1-c1sc(N)nc1C | -22 | -3% | 2.5% | -22%
CCOC(=O)N1CCN(C(=O)c2ccc3c(c2)N(CC)CCS3)CC1 | -4 | 1% | 1.5% | -1%
COc1ccccc1Nc1ccc(N)cc1 | 7 | 5% | 1.8% | 12%
CCNc1c(NC(=O)c2ccc3c(c2)OCO3)c(=O)oc2ccccc12 | . | 1% | -6.0% | -11%
CC(=O)Nc1ccc(NC(=O)C(C)OC(=O)/C(C#N)=C/c2ccc(N(C)C)cc2)cc1 (configuration not stated) | . | . | ? | ?
CCOc1ccc(OCC)c(NC(=O)C2CCN(S(=O)(=O)c3ccc4c(c3)CC(C)N4C(C)=O)CC2)c1 (configuration not stated) | . | 2%&-8% | -4.2% | 5%
CCN(CC(=O)Nc1ccc(NC(C)=O)cc1)C(=O)c1sc2nc3n(c(=O)c2c1C)CCC3 | . | . | -1.8% | 24%
Cc1cccc(N(C)S(=O)(=O)c2ccc(-c3cnc(C4CC4)o3)cc2)c1 | . | 21% | 0.6% | -1%
NC1=NC(=O)/C(=C\c2ccsc2)S1 | 4 | -1% | -2.5% | -6%

Three compounds from above, sorted by SMILES length, rising.
SMILES | GLA inh pH 4.5 | miR-21 FLuc | Rango-impB inh | Rango dissoc inh
O=C(CCCl)Nc1nnc(SCC(=O)NC2CCCC2)s1 | . | 17% | 0.0% | -14%
O=S1(=O)CCC(NC(=S)NC2CCS(=O)(=O)C2)C1 (configuration not stated) | 1 | -6% | -0.5% | -1%
CSc1ccc(CN(C)C(=O)CCNS(=O)(=O)c2ccc(C)c(C)c2)cc1 | . | . | -0.1% | 5%

Other compounds.
SMILES | GLA inh pH 4.5 | miR-21 FLuc | Rango-impB inh | Rango dissoc inh
c1ccc(NC2=NCCN2CCCC2CCCCC2)cc1 | . | . | -6.3% | -17%
O=C(Cc1ccc(Cl)cc1)NNC(=S)NC(=O)c1cccnc1 | 0 | -1% | 2.0% | 7%
C[C@H](O)[C@@H]1C(=O)N2CCc3ccc(-c4cccc(F)c4)cc3[C@@H]2C[C@@H]1N(C)S(=O)(=O)c1ccccc1 | . | . | ? | -5%
CC(C)C[C@@H](CN)NC(=O)c1nc[nH]c1C(=O)N[C@@H](Cc1c[nH]c2ccccc12)C(=O)CNC[C@H](C)NC(=O)c1nc[nH]c1C(=O)N[C@@H](CC(=O)O)C(=O)O | . | . | ? | 2%
CSc1ccccc1NC(=O)CN(C)CC(=O)Nc1ccc(Cl)cc1[N+](=O)[O-] | 2 | -18% | 2.9% | 2%
COc1ccc2[nH]c(=O)c(-c3nnn(-c4ccc(F)cc4)n3)cc2c1 | . | . | ? | ?
O=C1CSC(c2ccccc2F)N1c1cc(Cl)ccc1O (configuration not stated) | -11 | 2% | -3.6% | 0%
CC1=C/C(=C\c2ccc3c(c2)OCO3)C(=O)S1 | -2 | -6% | -1.8% | -13%
CCN(CC)c1ccc(NC(=O)c2cccc(C)c2)cc1S(=O)(=O)Nc1ccccc1OC | 1 | 0% | 0.7% | -9%
CN1C2C=C3C(C#N)=C(N)C(C#N)(C#N)[C@H](c4c(F)cccc4F)[C@H]3C1CC2 (some centres not stated) | -7 | -10% | ? | ?
CCOC(=O)N1CCN(C(=O)c2cc3c(s2)-c2ccc(Cl)cc2S(=O)(=O)C3)CC1 | 7 | -1% | -0.7% | -15%
CNC(=O)COc1coc(CN2CCN(c3ccccc3)CC2)cc1=O | . | 2% | -0.1% | 0%
CC1CCCC(C)N1C(=O)CSc1nnc(C2CCCCC2)o1 (configuration not stated) | 10 | -19% | -0.4% | 0%
COc1cccc(-n2c(SCC(N)=O)nnc2-c2ccco2)c1 | . | -1% | 5.0% | 28%
O=C1C=CC(=O)C(C2=C3C(=O)N(CCc4ccccc4)CC(=O)N3CCC2)=C1 | 6 | ? | 0.3% | 6%
CC1CCN(C(=O)c2[nH]cnc2C(=O)N[C@@H](CCCCNC(=O)OC(C)(C)C)C(=O)OC(C)(C)C)CC1 | 2 | 9% | 3.1% | -8%
N#Cc1ccc(C(=O)NCC(c2ccco2)N2CCCC2)cc1 (configuration not stated) | 5 | -2% | -2.2% | 0%
CCC(CC)c1nnc(NC(=O)c2nn(C)c(=O)c3ccccc23)s1 | -4 | -2% | . | .
Cc1csc(NC(=O)CSc2nc(C)nc3c2c(=O)n(C)c(=O)n3C)n1 | -23 | 1% | 1.9% | 8%
Cc1ccccc1SCC(=O)OCC(=O)Nc1sccc1C(N)=O | 7 | -1% | -0.4% | -2%
